Compound activity: PubChem BioAssay, National Center for Advancing Translational Sciences (NCATS)
Six1-Eya2 blk: Six1/Eya2 interaction inhibition; Q15475+O00167; AlphaScreen GST-Six1/His-Eya2 binding, biochemical; stronger effect = lower value; control for the full effect not named in the record; activity change, % (concentration not given with the values); 0.56% of 360,000 active; in the data active = activity change below about -65%; inconclusive = about -30% to -65%; inactive = above about -30%; note: % is set by controls: 0 for no effect and ±100 for the full control effect
Target sequence (O00167 whole entry, looked up): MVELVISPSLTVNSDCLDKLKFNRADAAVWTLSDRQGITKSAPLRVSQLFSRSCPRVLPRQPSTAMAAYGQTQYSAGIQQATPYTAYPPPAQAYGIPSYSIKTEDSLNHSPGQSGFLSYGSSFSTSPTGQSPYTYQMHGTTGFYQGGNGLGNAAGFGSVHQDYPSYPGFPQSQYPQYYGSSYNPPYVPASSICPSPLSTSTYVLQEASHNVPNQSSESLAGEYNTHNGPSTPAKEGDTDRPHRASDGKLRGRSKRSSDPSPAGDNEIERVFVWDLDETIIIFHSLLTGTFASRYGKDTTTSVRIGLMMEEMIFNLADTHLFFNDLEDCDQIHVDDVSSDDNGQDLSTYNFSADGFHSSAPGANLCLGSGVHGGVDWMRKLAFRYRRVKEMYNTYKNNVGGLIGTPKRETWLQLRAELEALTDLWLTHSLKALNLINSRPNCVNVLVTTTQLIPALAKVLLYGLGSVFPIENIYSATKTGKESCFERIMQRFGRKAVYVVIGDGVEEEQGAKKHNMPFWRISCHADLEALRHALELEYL
Target sequence (Q15475 whole entry, looked up): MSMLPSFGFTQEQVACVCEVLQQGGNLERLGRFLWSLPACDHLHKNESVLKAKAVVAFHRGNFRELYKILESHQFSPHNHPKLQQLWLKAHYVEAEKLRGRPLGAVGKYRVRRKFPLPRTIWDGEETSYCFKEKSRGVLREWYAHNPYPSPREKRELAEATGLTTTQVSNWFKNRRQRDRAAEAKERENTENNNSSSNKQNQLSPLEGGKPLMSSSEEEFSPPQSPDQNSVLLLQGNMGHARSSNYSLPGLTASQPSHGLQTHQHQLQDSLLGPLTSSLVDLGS
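Six1/Eya2 binding was read as AlphaScreen signal after compounds were pinned into GST-Six1 plus His-tagged Eya2 (5X stock 250/500 nM) in pH 8.0 Tris/NaCl/TCEP buffer, beads added, then incubated 1 h, 37 C, dark.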
PINK1 modulator: changes PINK1 expression; 0.2% of 410,000 active; PINK1 immunofluorescence, high-content cytometry, 24 h; AID 624263; Potency, µM (highest dose often 76.6 µM), for inactives: at the highest dose activation (PINK1 increase), hits mostly activators; active = well fitted activation curve with a large enough effect; inconclusive = small, poorly fitted or top-dose-only effect; inactive = flat fitted curve, though single readings scatter; cell line not stated here;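 note: potency is the fitted concentration of half-maximal effect; % of control where 0% means no effect; nearly all actives have a fitted effect of over 65% in size; a mitochondrial uncoupler was the plate control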
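Decision-based qHTS: stable cells, 24 h exposure to five compound concentrations, CCCP as control. Fixed cells stained for PINK1 plus nuclear, mitochondrial and cell markers, cytometer read.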
CtBP-E1A blk: CtBP/E1A binding inhibition; AlphaScreen GST-E1A/His-CtBP binding, 1536-well; stronger effect = lower value; control for the full effect not named in the record; activity change, % (concentration not given with the values); 0.49% of 340,000 active; in the data active means activity change below about -65%; inconclusive means about -30% to -65%; inactive means above about -30%; note: % is set by controls: 0 for no effect and ±100 for the full control effect
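In 5 uL wells, 23 nL compound meets equimolar GST-E1A and His-CtBP (5X stock 125 nM each) for 2 h, 37 °C. Beads (5X, 50 ug/mL) then 1 h, 37 °C, dark.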
D2 ag: activates the human D2 dopamine receptor | 0.084% of 360,000 active | AID 624465 | DiscoveRx PathHunter D2 beta-arrestin, luminescence, 90 min; 100% = 57 uM dopamine signal | P14416 | activation, % (test concentration not listed); in the data active = activation above about 40%; inconclusive = about 15% to 40%; inactive = below about 15%; note: compound concentration not given in the record; the text of the record calls up to 30% inactive
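Agonist mode: compounds alone added to overnight-plated D2 PathHunter cells for 90 min at 37 C, with 57 uM final dopamine (EC100) defining full response. Beta-arrestin recruitment detected by chemiluminescent reagent, read after 1 h at ambient temperature.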
TRPML1 agonist: human mucolipin-1 channel agonism; 0.12% of 410,000 active; activation, % (concentration not given with the values); AID 624414; TRPML1-expressing cells, Ca2+ dye fluorescence, FDSS; host cell line not named in the record; reference of the full effect not given here; in the data active = activation above about 50%; inconclusive = about 30% to 50%; inactive = below about 30%; note: 0% is about no effect; the text of the record puts the active cut at 80%
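TRPML1-DL cells, Tet-induced overnight (~16 h, 37 degrees C), loaded 45-90 min at room temperature with Ca8 no-wash calcium dye plus quencher. FDSS fluorescence: 10 s baseline, compound pin-transfer, 110 s agonist read, then EC80 54-4 (4uM final) and 110 s antagonist read.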
TRPML1 blocker: blocks the human TRPML1 channel; 0.02% of 390,000 active; TRPML1-inducible cells, Ca2+ dye fluorescence, FDSS; stronger effect = lower value; inhibition of EC80 agonist-evoked calcium signal; activity change, negative = inhibition, % (concentration not given with the values); Q9GZU1; in the data active means activity change below about -50%; inconclusive means about -30% to -50%; inactive means above about -30%;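 note: stimulus is agonist 54-4 at its EC80 concentration; % is set by controls: 0 for no effect and ±100 for the full control effect; compound concentration not given in the record; the text of the record puts the active cut at -80%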
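Calcium fluorescence in TRPML1-DL cells induced overnight with Tet: a 110 s read after compound pin addition, then a 110 s antagonist read after challenge with 54-4 at 4 uM final (EC80).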
An asterisk follows results filed as active; ? = inconclusive; . = no result given; & = joins results of further samples; [ ] = another dose, or the depositor's remark.

SMILES	Six1-Eya2 blk	PINK1 modulator	CtBP-E1A blk	D2 ag	TRPML1 agonist	TRPML1 blocker
CCn1cc(Cl)c(C(=O)Nc2ccc(OC)c(OC)c2)n1	0	2.4%	-4	1.8	-0.3	-2
CCn1c2ccccc2c2cc(CN3CCN(Cc4cc(OC)c(O)c(OC)c4)CC3)ccc21	.	5.0%	.	.	0.1	-22
COc1cccc(OC)c1C(=O)Nc1ccc2c3c(cccc13)CC2	-11	-1.0%	-14	-7.0	4.4	-3
CCOc1ccc(-c2nc(C#N)c(N3CCN(CC)CC3)o2)cc1	-15	1.3%	-8	-2.3	-0.8	4
CCCNC(=O)C(Cc1ccccc1)NS(=O)(=O)c1ccc2c(c1)c(=O)n(C)c(=O)n2C (centres undefined)	2	0.4%&-0.5%	-9	-2.7	-0.6&-0.9	-13&38
CC(CCc1ccco1)NC(=O)CCc1nnc2ccc(NCc3ccccc3Cl)nn12 (centres undefined)	-9	6.9%	.	-4.6	1.1	-4
Cc1cc(Cl)cc(C)c1OCCCCCn1ccnc1	-16	9.3%	4	-3.1	-0.2	9
CCOc1ccc(NC(=O)COC(=O)CCN2C(=O)C3CC=CCC3C2=O)cc1OCC (centres undefined)	-7	-1.0%	0	0.3	4.5	10
Cc1nc(NC(=O)CSc2nnc(N)s2)c(Cl)cc1Cl	5	0.1%	-5	-2.9	-0.7	-4
CCCCNC(=S)N/N=C/c1sccc1C	0	5.9%	-12	-7.8	0.1	7
CC(C)(C)NC(=O)CN(Cc1ccco1)C(=O)CCC(=O)Nc1nccs1	1	-3.5%	-18	0.7	0.1	-16
COc1ccc(C(=O)NCC(c2ccc(N(C)C)cc2)N2CCc3ccccc32)c(OC)c1 (centres undefined)	.	-1.7%	.	.	-0.1	-9
CC(C)(C)OC(=O)N(Cc1ccccc1)Cc1ccccc1OCc1cccc(NC(=O)c2ccccc2)c1	-1	-0.4%	2	-2.8	-0.3	17
CC(=O)OC1CC(C)(C)N(OC(=O)CCCN2C(=O)c3ccccc3C2=O)C(C)(C)C1	2	-0.9%	-2	-3.0	-1.1	0
COC(=O)c1ccccc1OCC(=O)NC1CCCCC1	6	3.0%[38.3 µM]	8	4.7	1.1	-4
O=C(CN1C(=O)/C(=C/c2cccc(Br)c2)SC1=S)Nc1cccnc1	-8	10%	0	-3.0	0.1	40
CCCCSC(=S)N(C)C1CCS(=O)(=O)C1 (centres undefined)	9	1.0%	-8	-3.9	-1.6	15
Cc1ccc(C)c(NC(=S)N(C)CCc2ccccn2)c1	-5	-0.2%	1	-2.9	1.7	-6
O=S(=O)(c1ccccc1)c1nc(-c2ccccc2Cl)oc1N1CCCCCC1	.	1.5%	.	.	0.7	-4
COc1cc2ccccc2cc1C(=O)N1CCN(c2ccccc2O)CC1	-7	-1.5%	.	-2.3	-0.3	23

A second format for 5 compounds above:
smiles | Six1-Eya2 blk | PINK1 modulator | CtBP-E1A blk | D2 ag | TRPML1 agonist | TRPML1 blocker
COC(=O)c1ccccc1OCC(=O)NC1CCCCC1 | 6 | 3.0%[38.3 µM] | 8 | 4.7 | 1.1 | -4
O=C(CN1C(=O)/C(=C/c2cccc(Br)c2)SC1=S)Nc1cccnc1 | -8 | 10% | 0 | -3.0 | 0.1 | 40
CCCCSC(=S)N(C)C1CCS(=O)(=O)C1 (centres undefined) | 9 | 1.0% | -8 | -3.9 | -1.6 | 15
Cc1ccc(C)c(NC(=S)N(C)CCc2ccccn2)c1 | -5 | -0.2% | 1 | -2.9 | 1.7 | -6
O=S(=O)(c1ccccc1)c1nc(-c2ccccc2Cl)oc1N1CCCCCC1 | . | 1.5% | . | . | 0.7 | -4

The listing continues:
SMILES	Six1-Eya2 blk	PINK1 modulator	CtBP-E1A blk	D2 ag	TRPML1 agonist	TRPML1 blocker
O=C(CC1C(=O)NCCN1CC1CCCCC1)NCc1cccc(F)c1F (centres undefined)	5	1.0%	3	-5.8	0.0	-23
O=S(=O)(Nc1ccc(N2CCOCC2)cc1)c1ccc(F)cc1F	-2	2.5%	4	-6.0	-1.0	-2
O=C(CCCn1c(=O)c2ccccc2n(Cc2cccc(Cl)c2)c1=O)NCCc1ccc(Cl)cc1	.	4.7%	.	.	4.0	2
Cc1ccc(NC(=O)C2CC(=O)Nc3nc4ccccc4n32)c(C)c1 (centres undefined)	-4	0.5%	1	-1.0	-0.3	5
CC(C)(C)CC(=O)Nc1ccc(-c2cn3cccnc3n2)cc1	-2	2.8%	5	-1.1	-1.3	10
COc1ccc(-n2c(SCC(N)=O)nc3sc4c(c3c2=O)CCN(C)C4)cc1	-5	-1.4%	-2	-4.3	-0.9	-6
COc1ccc(Cc2noc(CN3CCCN(C4Cc5ccccc5C4)CC3)n2)cc1OC	3	2.6%	-4	-5.2	-0.4	9
O=C(N/N=C/c1ccc(F)cc1)c1ccc(-n2cnnn2)cc1	-10	0.8%	-10	5.6	0.9	6
Cc1ccc(S(=O)(=O)c2nc(S(C)(=O)=O)sc2N2CCC(O)CC2)cc1	4	-1.8%	1	-0.2	-0.3	8
CC(C)C1Oc2ccccc2C(=O)N(CC(=O)c2ccc3c(c2)OCCO3)C1=O (centres undefined)	0	0.5%	.	-0.4	4.4	5
N#Cc1nc(-c2ccco2)oc1N1CCc2ccccc2C1	?	-2.5%[38.3 µM]	-21	0.3	-0.2	9
C=CCn1c(COc2cccc(C)c2)nnc1SCn1nnc2ccccc2c1=O	-4	0.2%	7	1.4	2.2	1
O=C(O)C1CSC(c2ccccc2)N1C(=O)c1ccco1 (centres undefined)	4	-0.1%	1	-3.2	0.3	-19
CCOC(=O)c1ccc2[nH]c(CSc3nnc(-c4cccc(F)c4)n3C)cc(=O)c2c1	.	4.0%	.	.	2.6	2
O=C(Nc1nnc(-c2ccc3c(c2)CCCC3)o1)c1ccccc1	5	0.9%	-9	-8.1	15	8
O=C(/C=C/c1ccccc1)NCC1(c2ccccc2)CCOCC1	-5	-1.6%	0	-5.7	-0.4	8
COCCNS(=O)(=O)c1cc(OC)ccc1OC	9	-0.6%	-7	-3.8	0.3	2
COc1ccc(-c2nn(-c3ccccc3)cc2/C=N/NC(N)=S)cc1OC	-19	6.0%	-8	-4.3	1.5	6
CCN1CCN(Cc2nnc(-c3ccccc3)o2)CC1	12	1.5%	.	-3.8	0.8	6
Cc1ccc(-c2nnc(Nc3ccc(Br)cc3)c3ccccc23)cc1S(=O)(=O)N1CCOCC1	.	1.4%	.	.	0.9	3

Some of these compounds in order of length of the SMILES, ascending.
SMILES	Six1-Eya2 blk	PINK1 modulator	CtBP-E1A blk	D2 ag	TRPML1 agonist	TRPML1 blocker
COCCNS(=O)(=O)c1cc(OC)ccc1OC	9	-0.6%	-7	-3.8	0.3	2
O=C(O)C1CSC(c2ccccc2)N1C(=O)c1ccco1 (centres undefined)	4	-0.1%	1	-3.2	0.3	-19
COc1ccc(-c2nn(-c3ccccc3)cc2/C=N/NC(N)=S)cc1OC	-19	6.0%	-8	-4.3	1.5	6

(cont.)
SMILES	Six1-Eya2 blk	PINK1 modulator	CtBP-E1A blk	D2 ag	TRPML1 agonist	TRPML1 blocker
Cc1cccc(-c2nc(CSc3nncn4c3cc3oc(C)cc34)c(C)o2)c1	.	3.5%	.	.	1.5	15
Cc1nc(SCc2ccccc2)c([N+](=O)[O-])[nH]1	-15	14%	3	-4.9	0.0	9
COc1ccc(NC(=O)Cc2csc(COc3cccc(C)c3)n2)cc1OC	.	0.3%	.	.	2.9	6
C[N+](C)(CC#N)C/C=C\c1ccccc1	1	0.1%	4	4.5	0.0	-13
Cc1cc(NC(=O)CCCSc2nc(-c3ccco3)cc(C(F)(F)F)n2)n(-c2ccccc2)n1	-10	-0.2%	0	-0.3	0.3	27
O=C(CSc1nnc2[nH]c(=O)cc(-c3ccccc3)n12)Nc1cc(C(F)(F)F)ccc1Cl	.	-2.3%	.	.	-0.2	17
CCN(CCn1cccn1)C(=O)CC1C(=O)NCCN1CCc1ccccc1 (centres undefined)	3	-1.1%	6	-1.3	-0.1	-10
CCN(CC)C(=O)/C(=C/c1cn(S(=O)(=O)N(C)C)c2ccccc12)NC(=O)c1ccc(OC)cc1	4	9.4%	-8	-4.5	0.3	-5
COc1ccc(NC(=O)Cn2nnc(-c3ccccc3N)n2)cc1OC	-2	.	11	2.3	0.2	3
CCS(=O)(=O)NCCc1csc2nc(-c3ccc(OC)cc3)nn12	.	0.4%	.	.	3.8	-5
O=C(CCn1c(=O)oc2ccccc21)N1CCCCCC1	8	-0.8%	4	0.3	0.0	17
Cc1cc(=O)oc2cc(OC(C)C(=O)O)c(Cl)cc12 (centres undefined)	0	0.3%[38.3 µM]	12	-4.5	0.3	-6
CC(C)c1ccc(C(=O)NCCCNC(=O)c2cnccn2)cc1	1	-0.1%	13	1.1	1.1	22
CCOC(=O)c1c(NC(=O)COC(=O)Cc2n[nH]c(=O)c3ccccc23)sc(C(=O)NC)c1C	4	-0.7%	-7	0.7	-0.4	5
CCN(CC)S(=O)(=O)c1cc(C(=O)O)ccc1Cl	8	16%[38.3 µM]	9	-2.6	0.6	-12
Cc1cc(Nc2ccc(C(C)C)cc2)nc(-n2nc(C)cc2C)n1	.	6.1%	.	.	-1.1	-18
CC(C)C(=O)Nc1cccc(NC(=S)NC(=O)c2cccs2)c1	0	7.0%	-2	-3.5	0.7	0
CC1Cc2cc(/C(O)=C3/C(=O)C(=O)N(CCCN4CCOCC4)C3c3ccc(C(C)C)cc3)ccc2O1 (centres undefined)	0	0.3%	-5	-6.8	-0.7	-2
COc1ccc(CCNC(c2ccc(F)cc2)c2nnc(-c3ccccc3Cl)o2)cc1OC (centres undefined)	.	-0.3%	.	.	-1.0	-11
Cc1c(NC(=O)CSC2=C(C#N)C(c3ccccc3F)CC(=O)N2)c(=O)n(-c2ccccc2)n1C (centres undefined)	2	-1.6%	7	-1.6	0.2	-15
O=C(OCc1ccccc1Cl)c1cc([N+](=O)[O-])ccc1N1CCOCC1	-11	0.2%	-20	-5.7	-0.6	5
CC(C)c1ccc(N2C(=O)CSC23C(=O)N(C)c2ccccc23)cc1 (centres undefined)	.	-0.7%	.	.	0.9	10
CC(C)COC(=O)c1nnsc1NC(=O)Nc1ccccc1	0	.	2	0.0	-0.3	-17
COc1cc(OC)c(C2=NOC(C(=O)NCCc3ccccc3)C2)cc1Cl (centres undefined)	-1	6.2%[38.3 µM]	8	1.4	0.5	-11
COc1ccc(C)cc1NC(=O)Cn1cnc2sc(C)c(S(=O)(=O)N3CCOCC3)c2c1=O	-2	-0.1%	-2	-0.7	1.7	24
O=S(=O)(c1ccc(Cl)cc1)c1cc(O)ccc1O	1	-0.5%	.	?	1.0	-3
Cc1ccc2c(c1)c(-c1ccccc1)nc1nnnn12	-1	-0.8%	1	-1.1	0.5	3
COc1cc(/C=C2\C(C)=C(C#N)c3nc(N)c(C#N)c(C)c32)ccc1OCC(=O)O	-73*	0.5%	-18	-1.5	0.0	-10
COc1ccc(CC(=O)OCc2nnc(C3COc4ccccc4O3)o2)cc1OC (centres undefined)	-1	-1.5%	-4	-1.8	-0.5	3
CC1CCCCC1NC(=O)C1CCN(S(=O)(=O)c2cccc3nsnc23)CC1 (centres undefined)	4	4.3%[38.3 µM]	2	2.1	0.2	10
CN(CC(=O)NCc1ccc2c(c1)OCO2)S(=O)(=O)c1ccc(Br)s1	-4	0.2%	-1	-1.9	1.5	-9
